Screens as filed in PubChem.
D2 ag: agonists of human D2 dopamine receptor (beta-arrestin) | P14416 | DiscoveRx PathHunter D2 beta-arrestin, luminescence, 90 min; 100% = 57 uM dopamine signal | activation, % (no concentration beside the values) | 360,000 compounds, 0.084% hits | AID 624465; in the data active = activation above about 40%; inconclusive = about 15% to 40%; inactive = below about 15%; also: compound concentration not given in the record; the text of the record calls up to 30% inactive
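DiscoveRx PathHunter D2 beta-arrestin cells (2,100/well) attached overnight, then compound-stimulated 90 min at 37 C in HBSS/10 mM HEPES/0.1% Tween-20 buffer; beta-galactosidase complementation read by luminescence after 1 h at ambient temperature. Dopamine 57 uM final (EC100) as control.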
gsp antag: antagonizes gsp, the McCune-Albright syndrome mutation | gsp-mutant cells, cAMP HTRF, 30 min; control for the full effect not named in the record | Potency, µM (titrated, usually from 76.9 µM), without a hit: at the highest dose activity change, negative = inhibition, actives largely listed as inhibitors | 340,000 compounds, 0.4% hits | AID 624288; active = falling curve of any shape with a large fitted effect; inconclusive = falling curve, mostly with a smaller effect; inactive = flat or rising curve; cell line not stated here;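 also: intracellular cAMP measured with PDE inhibitor Ro 20-1724 present during compound exposure; potency is read from the fitted curve at half-maximal effect; % is scaled to controls: 0 for no effect and ±100 for the full control effect; nearly all actives have a fitted effect of over 65% in size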
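G418-selected cells were plated in DMEM/10% FBS for 16-24 h at 37C, then treated with compounds plus the PDE inhibitor […] (300 uM solution added) for 30 min at 37C. Intracellular cAMP was measured by HTRF after 30 min lysis at room temperature.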
Six1-Eya2 blk: Six1/Eya2 interaction inhibition | AID 651725 | 360,000 compounds, 0.56% hits | Q15475+O00167 | activity change, % (no concentration beside the values) | AlphaScreen GST-Six1/His-Eya2 binding, biochemical; hits give low values; control for the full effect not named in the record; in the data active = activity change below about -65%; inconclusive = about -30% to -65%; inactive = above about -30%; also: % is scaled to controls: 0 for no effect and ±100 for the full control effect
Target sequence (O00167 whole entry, looked up): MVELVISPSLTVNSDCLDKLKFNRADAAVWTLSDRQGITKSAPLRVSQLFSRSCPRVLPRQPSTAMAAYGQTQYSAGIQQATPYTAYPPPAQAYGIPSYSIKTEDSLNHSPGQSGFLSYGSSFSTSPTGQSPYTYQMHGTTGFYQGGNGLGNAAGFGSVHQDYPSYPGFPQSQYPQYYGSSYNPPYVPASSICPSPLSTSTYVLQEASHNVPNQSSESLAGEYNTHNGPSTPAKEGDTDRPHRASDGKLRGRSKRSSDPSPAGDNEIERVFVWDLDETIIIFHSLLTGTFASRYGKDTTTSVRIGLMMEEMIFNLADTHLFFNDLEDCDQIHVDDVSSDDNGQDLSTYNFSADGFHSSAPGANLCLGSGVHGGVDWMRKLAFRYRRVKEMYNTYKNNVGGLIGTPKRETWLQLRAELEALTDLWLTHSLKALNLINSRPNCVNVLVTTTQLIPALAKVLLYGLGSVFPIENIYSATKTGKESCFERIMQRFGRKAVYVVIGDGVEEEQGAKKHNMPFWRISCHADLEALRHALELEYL
Target sequence (Q15475 whole entry, looked up): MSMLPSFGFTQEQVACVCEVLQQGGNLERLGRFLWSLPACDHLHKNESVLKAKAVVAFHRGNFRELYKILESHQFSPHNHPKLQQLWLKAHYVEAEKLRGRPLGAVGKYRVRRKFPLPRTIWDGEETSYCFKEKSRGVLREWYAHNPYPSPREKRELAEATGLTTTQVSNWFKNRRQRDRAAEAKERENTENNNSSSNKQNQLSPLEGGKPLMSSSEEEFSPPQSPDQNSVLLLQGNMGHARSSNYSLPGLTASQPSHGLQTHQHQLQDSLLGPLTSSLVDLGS
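GST-Six1 + His-Eya2 (5X stock: 250/500 nM); Tris pH 8.0, 300 mM NaCl, 0.05% BSA, 0.02% Tween 20; GSH donor/Ni acceptor beads; 1 h 37 °C dark; AlphaScreen readout.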
CtBP-E1A inh: blocks the CtBP interaction with E1A. AlphaScreen GST-E1A/His-CtBP binding, 1536-well; hits give low values; control for the full effect not named in the record. activity change, % (concentration not given with the values). 340,000 compounds, 0.49% hits. AID 651724; in the data active means activity change below about -65%; inconclusive means about -30% to -65%; inactive means above about -30%; also: % is scaled to controls: 0 for no effect and ±100 for the full control effect
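GST-E1A and His-tagged CtBP (125 nM each as 5X stock) were preincubated with pin-transferred compound for 2 h at 37 °C in the dark, then glutathione donor and nickel acceptor beads were added for 1 h before AlphaScreen reading.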
D2 potentiator: potentiates the human D2 dopamine receptor allosterically | P14416 | DiscoveRx D2 beta-arrestin cells, luminescence, 90 min; 100% = 57 uM dopamine signal | potentiation, % (no concentration beside the values) | 360,000 compounds, 0.23% hits | AID 624464; active = potentiation of 50% or more; inconclusive = 30% to 50%; inactive = 30% or less;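 also: compound concentration not given in the record; tested on top of an EC20 dose of dopamine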
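D2 cells co-treated with compound plus 50 nM dopamine (EC20) for 90 min at 37 deg C to detect potentiation. Beta-arrestin recruitment was read as enzyme-fragment luminescence after 1 h at ambient temperature. Full response was set by 57 uM dopamine.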
gsp agonist: activates gsp, the McCune-Albright syndrome mutation; 340,000 compounds, 0.13% hits; gsp mutant cells, cAMP HTRF, 30 min; control for the full effect not named in the record; Potency, µM (series often up to 76.9 µM), without a hit: at the top dose activation (cAMP increase), usual class: activators; active = well fitted activation curve with a large enough effect; inconclusive = small, poorly fitted or top-dose-only effect, or another doubt; inactive = no such curve, though single readings can be large or run the other way; cell line not stated here;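 also: phosphodiesterase inhibitor Ro 20-1724 added with compounds to block cAMP breakdown; potency is read from the fitted curve at half-maximal effect; nearly all actives have a fitted effect of over 60% in size; about a fifth of the inactives were tested at one dose only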
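Cells stably selected in G418 were plated at 2000/well, grown 16-24 hr, then given compounds in DMSO with the PDE inhibitor […] (300 uM solution added) for 30 min at 37C; cAMP was read by HTRF.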
Active calls of the source: *; ? = inconclusive; / = not tested or not shown; & = joins results of further samples; [ ] = dose if it differs, or a comment.

#	smiles	D2 ag	gsp antag	Six1-Eya2 blk	CtBP-E1A inh	D2 potentiator	gsp agonist
1	Cc1ccc(CN2C(=O)C(Cc3ccccc3)Nc3ncnc(N4CCCCC4)c32)cc1 (centres undefined)	-4.7&-14	-12%	-3&-4	4&-7	-62&-16	/
2	Cc1cc(C(=O)OCC(=O)Nc2cc(Cl)ccc2C)c(C)o1	-3.0	-2%	3	23	-8	-6%
3	O=C(CCCN1C(=O)/C(=C/c2cccs2)SC1=S)Nc1cccc(C(=O)O)c1	-5.3	-3%	-12	-4	1	-9%
4	Cc1c(Br)c(C(F)(F)F)nn1CC(=O)NCc1ccccc1	4.3	-5%	5	1	3	?
5	Oc1ccc(Br)cc1-c1nc2cnccn2c1NC1CCCCC1	3.6	0%	-1	8	?	4%
6	CCCCNCCS(=O)(=O)NCc1ccccc1OC	-3.5	1%	-1	-21	-16	/
7	CCn1c2ccccc2c2cc(NC(=O)COC(=O)Cc3cn4ccsc4n3)ccc21	-2.3	0%[15.4 µM]	-15	-11	-17	11%
8	Cc1ccc(C)c(C(=O)C(C)Sc2nc3nn(-c4ccccc4)c(=O)c-3c3n2CCCCC3)c1 (centres undefined)	-1.7	?	-11	-21	0	4%
9	O=C(NCc1nc(-c2ccc(Cl)cc2)no1)c1ccc2c(c1)OCO2	-6.5	-1%	5	20	-7	-5%[15.4 µM]
10	CCn1c(CC(=O)Nc2ccccc2F)nnc1SCC(=O)NC1=NCCS1	0.6	/	-4	3	-8	-13%
11	NC(=O)c1cccc(NC(=O)Nc2ccc(Cl)cc2)c1	-2.5	2%	2	6	-4	11%[15.4 µM]
12	Cc1cc(N2CCOCC2)n2nc(C)c(-c3ccccc3Cl)c2n1	-4.6	-6%	-3	1	-2	15%
13	O=C(C1CN(C(=O)c2cc3ccccc3o2)c2ccccc2O1)N1CCCCC1 (centres undefined)	-2.3	/	-11	-6	-8	-4%
14	CCOc1ccc(N(CC(=O)NC2CC3CCC2C3)S(=O)(=O)c2ccc(C)cc2)cc1 (centres undefined)	-6.6	-23%	-17	-8	-15	28%
15	O=C(Nc1cccc(C(F)(F)F)c1)c1ccc2nc(N3C(=O)CCC3=O)sc2c1	-0.1	-11%	-3	1	1	-4%
16	COc1ccccc1NC(=S)N1CCC(c2nc3ccccc3o2)CC1	0.7	-8%	1	/	-8	26%
17	COc1ccccc1-c1ccc(SCc2ccccc2F)nn1	1.6	-3%	20	1	1	18%[15.4 µM]
18	Cc1cc(C)n(CC(=O)NNC(=O)c2cccc(C(F)(F)F)c2)n1	4.5	10%	16	2	-6	26%
19	OCc1nc2ccccc2n1CC(O)Cn1ccc2ccccc21 (centres undefined)	-12	-1%	-3	-1	2	-40%[inhibitor]
20	CC(C)CC(=O)Nc1ccc(Nc2ccccc2)cc1	0.3	11%	-5	13	4	-23%
21	COc1cccc(C=NNc2nnc(NN=Cc3cccc(OC)c3OC)c3ccccc23)c1OC	-6.0	-3%	-78*	-86*	-33	-14%
22	COc1ccc2nc(C)cc(Nc3ccccc3OC)c2c1	-1.3	/	-23	-11	-20	-202%[inhibitor]
23	CC(=O)N1CCN(CCN=CC2=C(O)CC(C)(C)CC2=O)CC1	1.7	-1%	3	7	-5	-26%
24	COc1ccc(NS(=O)(=O)c2ccc(NC(=O)C(CCSC)NC(N)=O)cc2)cc1 (centres undefined)	-5.9	3%	3	7	-1	34%
25	O=c1cc(N2CCCCC2)c(-c2ccccc2)n[nH]1	2.9	13%	1	/	-2	4%[15.4 µM]
26	O=C(COc1ccc(Cl)cc1[N+](=O)[O-])N1CCCCC1	-1.5	1%	-2	9	-4	1%
27	Cc1cccc(C)c1NC(=O)CCN1C(=O)C2C3CCC(C3)C2C1=O (centres undefined)	-3.1	7%	0	0	-4	-7%
28	O=C(CN(Cc1ccco1)Cc1cccs1)N1CCN(S(=O)(=O)c2cccc(F)c2)CC1	2.6	?	-4	0	1	-5%
29	C=C1C[C@]23C[C@@]1(O)CC[C@H]2[C@@]12C=C[C@H](O)[C@@](C)(C(=O)O1)[C@H]2[C@@H]3C(=O)O	3.3&6.6	8%&6%	-1&0	6&9	2&-1	/
30	Cc1ccc(-c2nnc(NCc3nc4ccccc4[nH]3)c3ccccc23)cc1S(=O)(=O)N1CCOCC1	3.0	-4%	-23	-4	-1	-1%

Taken from above.
entry 29 – D2 ag: 3.3&6.6
entry 22 – gsp agonist: -202%[inhibitor]

Compounds 20 to 30, quoted:
#	smiles	D2 ag	gsp antag	Six1-Eya2 blk	CtBP-E1A inh	D2 potentiator	gsp agonist
20	CC(C)CC(=O)Nc1ccc(Nc2ccccc2)cc1	0.3	11%	-5	13	4	-23%
21	COc1cccc(C=NNc2nnc(NN=Cc3cccc(OC)c3OC)c3ccccc23)c1OC	-6.0	-3%	-78*	-86*	-33	-14%
22	COc1ccc2nc(C)cc(Nc3ccccc3OC)c2c1	-1.3	/	-23	-11	-20	-202%[inhibitor]
23	CC(=O)N1CCN(CCN=CC2=C(O)CC(C)(C)CC2=O)CC1	1.7	-1%	3	7	-5	-26%
24	COc1ccc(NS(=O)(=O)c2ccc(NC(=O)C(CCSC)NC(N)=O)cc2)cc1 (centres undefined)	-5.9	3%	3	7	-1	34%
25	O=c1cc(N2CCCCC2)c(-c2ccccc2)n[nH]1	2.9	13%	1	/	-2	4%[15.4 µM]
26	O=C(COc1ccc(Cl)cc1[N+](=O)[O-])N1CCCCC1	-1.5	1%	-2	9	-4	1%
27	Cc1cccc(C)c1NC(=O)CCN1C(=O)C2C3CCC(C3)C2C1=O (centres undefined)	-3.1	7%	0	0	-4	-7%
28	O=C(CN(Cc1ccco1)Cc1cccs1)N1CCN(S(=O)(=O)c2cccc(F)c2)CC1	2.6	?	-4	0	1	-5%
29	C=C1C[C@]23C[C@@]1(O)CC[C@H]2[C@@]12C=C[C@H](O)[C@@](C)(C(=O)O1)[C@H]2[C@@H]3C(=O)O	3.3&6.6	8%&6%	-1&0	6&9	2&-1	/
30	Cc1ccc(-c2nnc(NCc3nc4ccccc4[nH]3)c3ccccc23)cc1S(=O)(=O)N1CCOCC1	3.0	-4%	-23	-4	-1	-1%

Next section:
#	smiles	D2 ag	gsp antag	Six1-Eya2 blk	CtBP-E1A inh	D2 potentiator	gsp agonist
31	CC(=O)N1CCN(C(=O)COC(=O)c2ccc(S(C)(=O)=O)cc2)CC1	-0.1	7%	8	1	0	2%
32	COC(=O)C1=C(C(=O)OC)[C@@H]2N(C)c3ccc(OC)cc3[C@@]23C[C@@H](C(=O)OC)N(C(=O)NCCBr)C3=N1	-1.2	1%	-17	-14	-2	37%
33	N#Cc1nc(COc2ccc(F)cc2)oc1N1CCCCC1	-0.1	9%	0	3	-3	14%[15.4 µM]
34	COc1ccc(C(C)NC(=O)CCc2ccccc2)cc1 (centres undefined)	5.4	-13%	-3	8	-1	-9%[15.4 µM]
35	Cc1cccc(OCc2n(CC(=O)OC3CC(C)CCC3C(C)C)c3ccccc3[n+]2C)c1 (centres undefined)	2.0	0%	-5	-7	-3	0%
36	CCOCCOC(=O)COc1ccc2c(=O)c(Oc3ccc(OC)cc3)coc2c1	5.4	-9%	8	/	-4	9%
37	CC(OC(=O)c1cccc(NS(C)(=O)=O)c1)C(=O)Nc1ccc(N2CCOCC2)cc1 (centres undefined)	-3.0	6%	2	2	-2	?
38	COc1ccc2cc(C#N)c(SCC(=O)N3CCCC3)nc2c1	-1.7	-4%	-5	-1	-27	-3%
39	O=C(Nc1ccc(Cl)cc1)N(Cc1nc2ccccc2c(=O)[nH]1)Cc1cccs1	-0.8	-21%	-3	5	-34	-100%[inhibitor]
40	CN(C)c1ccc(-c2ccnc3c2CC(C)(C(=O)NCc2ccco2)O3)cc1 (centres undefined)	9.7	/	-20	-15	6	/
41	CC(=O)NC(CC(=O)NNC(=O)COc1c(C)cccc1C)c1ccccc1 (centres undefined)	1.3	11%	-6	9	-2	-11%
42	Cc1cccc(NC(=S)NCCc2c[nH]c3ccccc23)c1	0.2	-1%	-19	-10	-13	-44%[inhibitor]
43	COc1ccc(C[C@H]2CN3C(=NC[C@@H]3Cc3ccc(O)cc3)N2CCNC(=O)c2ccc(C)c(Br)c2)cc1	4.2	3%	-11	/	-29	?
44	COC(=O)C1=C(C)N(c2ccc(C(=O)OC)cc2)C(=O)C1	-2.2	-4%	9	-1	0	24%
45	CNC(=S)N/N=C/c1ccc(-c2ccc(C(=O)O)cc2)o1	-1.6	-19%	-8	-21	-9	-22%
46	O=C(c1cnn(-c2nc3ccccc3s2)c1)c1ccccc1O	-1.7	8%	2	-2	-5	-18%
47	CCOC(=O)[C@@H]1[C@H]2COc3ccc(Br)cc3[C@@H]2N2C(=O)N(c3ccc(C)cc3)C(=O)[C@]12C	-2.0	-6%	-11	/	-12	-7%
48	Cc1cccc(CSc2nc3ccccc3c(=O)n2C)c1	-2.7	-26%	3	/	-1	?
49	N#CC1=C(N)NC(SCc2ccccc2)=C(C#N)C12CCCCC2	-2.5	-24%	-7	-8	-11	-1%
50	O=S(=O)(c1cnc(Cl)c(Cl)c1)N1CCN(c2ncccn2)CC1	-0.6	-3%	4	2	1	12%[15.4 µM]
51	Cc1cc(S(=O)(=O)Nc2c(C)nn(C)c2C)c(Cl)cc1Cl	-3.1	-3%	-1	0	1	-10%[15.4 µM]
52	COc1cc(CNc2nccn3ccnc23)cc(OC)c1	0.9	/	4	0	3	/
53	CC1(C)CC(=O)C(C=Nc2ccncc2)=C(O)C1	-2.0	3%	0	4	-9	4%
54	COc1ccc(NC(=O)c2cccc(Cn3cc(Br)cn3)c2)cn1	-1.2	-13%	-1	-14	-9	-18%
55	CCc1nnc(NC(=O)CSc2nnc(COc3ccc(C)cc3)n2-c2ccccc2)s1	2.1	-8%	0	-10	-36	-11%
56	COc1cccc(NCc2cc(=O)oc3cc(-c4ccccc4)c(O)cc23)c1	-2.2	?	-3	-9	-22	14%
57	COc1ccc(N2CCN(C(=O)Nc3ccccc3Cl)CC2)cc1	-1.6	0%	-2	0	-7	-21%
58	CCC(C)c1ccc(S(=O)(=O)N2CCN(C(C)CC(=O)O)CC2)cc1 (centres undefined)	-3.5	-14%	9	9	-2	4%[15.4 µM]
